# Rango complex inh – prevents formation of the Rango-importin beta complex; Q14974; Rango CFP/YFP FRET sensor + importin beta, 45 min; Potency, µM (doses to about 92.2 µM), for the others: top-dose inhibition of complex formation; hit rate 0.031% among 340,000; active = rising FRET ratio curve, often small or poorly fitted; inconclusive = mostly compound fluorescence or quenching in the first reads; inactive = flat curves in all reads;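 note: potency is the fitted concentration of half-maximal effect; 0% = DMSO wells and 100% = buffer wells lacking importin beta; nearly all actives have a fitted effect of over 15% in size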
#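 Inhibition scored from the CFP 486 nm/YFP 530 nm FRET ratio 45 min after adding 0.125 microM importin beta to 50 nM Rango biosensor preincubated 5 min with compound (room temperature, PBS with DTT, Tween-20, BSA). No-importin wells as positive control.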
# Rango dissoc inh – prevents RanGTP from dissociating the Rango-importin beta complex | O95149+P62826 | Potency, µM (doses to about 46.1 µM), without a hit: at the highest dose activity change, negative = inhibition | hit rate 0.071% among 340,000 | Biochemical FRET Rango-importin beta, RanGTP-induced dissociation; active means falling FRET ratio curve, often poorly fitted, with flat reads before Ran was added; inconclusive means other falling curves, or compound fluorescence or quenching; inactive means flat or rising ratio curve;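 note: potency is the fitted concentration of half-maximal effect; % of control where 0% means no effect; nearly all actives have a fitted effect of over 45% in size; -100% = wells without RanGTP and RCC1; the record marks most hits as doubtful in a second field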
#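 Rango/importin beta premix (0.1/0.25 uM final), PBS + 1 mM DTT + 0.02% Tween-20 + 0.1% BSA; cpd 5 min RT; FRET pre-read; + RanGTP-RCC1 (0.6 uM Ran, 2 mM GTP, 0.2 uM RCC1); 45 min RT; FRET post-read, ex 430, em 486/530 nm.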
# GLA inh pH 4.5 – blocks human alpha-galactosidase A at pH 4.5; activity change, negative = inhibition, % at 105 µM; P06280; AID 1467; purified enzyme, 4-MU-alpha-Gal fluorescence, pH 4.5; 230,000 tested, under 10 active; inconclusive = small, poorly fitted or top-dose-only inhibition, or a rising curve; inactive = flat fitted curve, though single readings scatter; no compound was filed as active;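 note: 0% = full activity with enzyme and -100% = basal without enzyme; dose as in the result columns while the protocol names 77 µM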
# Target sequence (P06280 whole entry, looked up): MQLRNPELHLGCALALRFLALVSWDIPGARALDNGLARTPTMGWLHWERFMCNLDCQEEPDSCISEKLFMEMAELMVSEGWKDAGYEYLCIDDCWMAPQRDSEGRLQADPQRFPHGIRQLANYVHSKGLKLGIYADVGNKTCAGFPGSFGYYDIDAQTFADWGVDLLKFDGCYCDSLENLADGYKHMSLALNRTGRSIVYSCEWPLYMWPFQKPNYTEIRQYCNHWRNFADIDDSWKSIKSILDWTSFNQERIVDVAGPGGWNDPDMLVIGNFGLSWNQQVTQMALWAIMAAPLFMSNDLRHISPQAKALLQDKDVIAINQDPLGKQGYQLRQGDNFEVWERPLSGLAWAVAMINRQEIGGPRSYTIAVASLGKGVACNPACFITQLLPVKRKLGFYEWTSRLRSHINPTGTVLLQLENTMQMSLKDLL
# miR-21 FLuc – raises the signal of a miR-21 reporter; HeLa miR-21 FLuc reporter, luciferase, 48 h; Potency, µM (doses to about 38.3 µM), for inactives: top-dose reporter change, positive = more light; 340,000 tested, under 10 active; active = well fitted rising curve with a large enough effect; inconclusive = small, poorly fitted or top-dose-only effect; inactive = no such curve, though single readings can be large or run the other way;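 note: % of control where 0% means no effect; miR-21 action dims this reporter so a rising signal means less miR-21 action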
#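 HeLa miR-21-FLuc reporter line, endogenous miR-21; 2000 cells/well in DMEM/10% FBS; compound titration up to ~40uM final, 48 h, 37 degree Celsius; luciferase detection reagent, 15 min lysis, CCD luminescence.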
# An asterisk follows results filed as active; u = inconclusive; x = not tested or not shown; & = joins results of further samples.
# Results follow in this order: Rango dissoc inh	GLA inh pH 4.5	miR-21 FLuc	Rango complex inh
Cc1cc(OCC(=O)N2CCC(C(=O)O)(c3ccccc3)CC2)c2c(C)c(C)c(=O)oc2c1
→ -11%	x	-13%	-1.8%
C=CCn1c(O)c(C(C)=NCc2cccnc2)c(=O)[nH]c1=O
→ -18%	3	5%	3.9%
CCCCOc1ccc(CCN)cc1Cl
→ 1%	0	-16%	-0.1%
CCC(=Nc1cc(OC)ccc1OC)c1c(O)[nH]c(=O)[nH]c1=O
→ 17%	10	-12%	-0.7%
CC(=NCC1CCCO1)c1c(O)n(-c2ccc(C)cc2)c(=O)[nH]c1=O (stereo not drawn)
→ 0%	-9	-3%	3.4%
Cc1cc(N2CCCC2)ccc1C=C(C#N)C#N
→ -24%	7	0%	u
CC(C)OC(=O)Nc1ccc(N=C(N)N[N+](=O)[O-])cc1
→ 4%	0	1%	0.0%
CC(N)Cc1c[nH]c2ccc(OCc3cccs3)cc12 (stereo not drawn)
→ -1%	-9	x	-0.2%
Cc1ccc(NC(=O)c2ccc(C)c(S(=O)(=O)N3CCCCC3)c2)nc1
→ u	x	x	-3.9%
O=P(NC1CCCCC1)(Oc1ccccc1)Oc1ccccc1
→ 2%	x	x	-2.2%
Nc1ccc2nonc2c1[N+](=O)[O-]
→ u	2	-2%	u
O=C1NC(=O)N(c2ccccc2)C(=O)/C1=C\c1ccc([N+](=O)[O-])o1
→ x	-3	10%	x
Cc1ccccc1N1C(=O)NC(=O)/C(=C\c2ccc3c(c2)CCCN3Cc2ccccc2)C1=O
→ u	-2	2%	u
C[C@H]1CC[C@H]2NCCN[C@H]2C1
→ u	4	2%	0.4%
CN1CCN(c2ccc(NC(=O)C(C)(C)C)cc2)CC1
→ -15%	-1	-12%	2.3%
CCn1c(O)c(C=Nc2cc(Cl)ccc2Cl)c(=O)n(CC)c1=O
→ -15%	-11	1%	-0.2%
O=C(/C=C/c1ccc2c(c1)OCO2)c1c(O)n(CCc2ccccc2)c(=O)[nH]c1=O
→ 5%	-26	-2%	1.2%
COP(=S)(OC)SCN1C(=O)c2ccccc2C1=O
→ -8%	x	-1%	2.8%
CC1(C)Cc2c(sc3c2C(=O)NC(c2cccnc2)N3)CO1 (stereo not drawn)
→ -16%	16	-6%	u
COP(=O)(OC)C(NC(=O)C(C)(C)C)=C(Cl)Cl
→ 1%	7	-6%	-1.6%

# Of the compounds above, these contain a tert-butyl group.
# Results follow in this order: Rango dissoc inh	GLA inh pH 4.5	miR-21 FLuc	Rango complex inh
CN1CCN(c2ccc(NC(=O)C(C)(C)C)cc2)CC1
→ -15%	-1	-12%	2.3%
COP(=O)(OC)C(NC(=O)C(C)(C)C)=C(Cl)Cl
→ 1%	7	-6%	-1.6%

# Remaining list, next part.
# Results follow in this order: Rango dissoc inh	GLA inh pH 4.5	miR-21 FLuc	Rango complex inh
COc1ccc2nc(NC(=O)CCc3nc(C4=CCN(C)CC4)no3)sc2c1
→ 10%	-18	-9%	-5.4%
O=c1[nH]c(=O)n(C2CCCCCC2)c(O)c1C=NC1CCN(Cc2ccccc2)CC1
→ 3%	-1	-10%	-0.5%
COc1ccc(OCC(=O)N2CCN(CC3CC4C=CC3C4)CC2)cc1 (stereo not drawn)
→ -1%	-11	-1%	-0.8%
CCOc1cc2c(cc1OCC)-n1cccc1C(c1ccc(OC)c(O)c1)NC2 (stereo not drawn)
→ -11%	x	-3%	2.9%
O=C(Nc1cccc(Cl)c1)c1c(O)c2c(n(Cc3ccco3)c1=O)CCCC2
→ -14%	-5	-27%	0.6%
CCOC(=O)c1cc(CC)sc1/N=C/C1C(=O)NC(=S)NC1=O
→ -11%	-2	-7%	u
O=C1NC(=O)C(=Cc2ccc(-c3cc(Cl)ccc3[N+](=O)[O-])o2)C(=O)N1
→ -1%	4	-1%	-1.8%
CC(C)CCn1c(=O)c(C(=O)NCc2ccc3c(c2)OCO3)c(O)c2ccccc21
→ 3%	x	3%	-1.1%
CC12CC(c3ccccc3O1)C(C(=O)OCc1ccccc1)C(=O)N2 (stereo not drawn)
→ 0%	7	-12%	-4.4%
CC1=Nc2ccccc2/C1=C/c1c(O)[nH]c(=O)[nH]c1=O
→ -8%	x	-2%	-1.3%
Cc1ccccc1C(=O)N1Cc2cnnn2-c2ccccc2C1C#N (stereo not drawn)
→ 10%	x	x	3.2%
Cc1ccc(S(=O)(=O)N(C)c2ccc(C(=O)NCC3(N(C)C)CCCCC3)cc2)cc1
→ 6%	x	-5%	-1.4%
CCCCP(=O)(O)CCC(=O)O
→ 15%	-5	-15%	-1.4%
O=c1cccc2n1CC1CC2CN(Cc2c(F)cccc2Cl)C1 (stereo not drawn)
→ 1%	-4	-4%	8.0%
CC(=O)Nc1ccc(C(c2c(O)c3ccccc3oc2=O)c2c(C)n(C)n(-c3ccccc3)c2=O)cc1 (stereo not drawn)
→ -11%	-5	1%	-4.9%
Cc1ccc(CN2CCN(CC(=O)N3CCC4(CC3)OCCO4)C2=O)cc1
→ -10%	-4	0%	-3.0%
COc1ccc(CNCCc2ccc(Cl)cc2Cl)cc1
→ 1%	x	-5%	1.6%
CCOC(=O)c1c(C)[nH]c(C(=O)C(C)N2CCCC2)c1C (stereo not drawn)
→ -8%	-3	-7%	-1.1%
Cc1cc(C)n(CCOC(=O)C2C(C=C(Cl)Cl)C2(C)C)n1 (stereo not drawn)
→ -7%	-8	0%	2.3%
Cc1cccc(C)c1NC(=O)c1cccn(Cc2ccc3c(c2)OC(F)(F)O3)c1=O
→ 0%	-15	0%	3.1%
CCC(=Nc1ccc(OC)cc1OC)c1c(O)[nH]c(=O)[nH]c1=O
→ 2%	2	-43%	4.7%
CNCC[C@@H](Oc1ccc(C(F)(F)F)cc1)c1ccccc1
→ 3%	-6	x	1.0%
Cc1nc2ccccc2c(=O)n1-c1cccc(C(F)(F)F)c1
→ -20%	x	-6%	-2.0%
COC(=O)C1=C(N)Oc2c(c(=O)oc3ccccc23)C1c1cccnc1 (stereo not drawn)
→ -24%	3	-3%	-4.6%
O=C(c1ccccc1)c1cn(CC(=O)N2CCCC2)c2ccccc12
→ -14%	2	-2%	2.7%
O=C(COc1ccccc1)N1CCN(C2CCCC2)CC1
→ -26%	14	-7%	u
CN1CCN(Cc2nc3ccccc3c(=O)[nH]2)CC1
→ -1%	6	-3%	3.7%
CCCCCCN=C(C)c1c(O)n(CCCC)c(=O)[nH]c1=O
→ -12%	5	-1%	-1.3%
CCC(=NCCCN(CC)CC)c1c(O)n(C2CCCCC2)c(=O)[nH]c1=O
→ 0%	2	-14%	-4.9%
COC(=O)C1=C(c2cccc(OCc3ccccc3)c2)C[C@@H]2CC[C@H]1N2C(=O)NCc1ccc(C(C)(C)C)cc1
→ 15%	x	x	-0.5%
Cc1ccc(N2C(=O)NC(=O)/C(=C/c3ccc(OC(=O)c4cccs4)cc3)C2=O)cc1
→ 0%	10	0%	-3.4%
C[C@]12CCC(=O)C=C1CC[C@@H]1[C@@H]2CC[C@]2(C)C(=O)CC[C@@H]12
→ -14%	0&-1	-7%	-1.9%
NC(=O)C1(N2CCCCC2)CCN(Cc2ccccc2)CC1
→ 17%	-3	-4%	-6.0%
COc1ccc(CCNCc2ccsc2)cc1OC
→ -1%	x	1%	-7.9%
Cc1ccc(OCC(=O)N2CCN(Cc3ccc4c(c3)OCO4)CC2)cc1C
→ -15%	3	1%	2.0%
O=c1c(C=Nc2cccnc2Cl)c(O)n(CCCCl)c(=O)n1C1CCCCC1
→ -25%	u	-9%	u
Cc1nonc1-c1nc(-c2nonc2N)n[nH]1
→ 0%	2	-4%	-0.5%
Cn1c(O)c(C=Nc2ccc(F)cc2)c(=O)[nH]c1=O
→ 5%	x	6%	-1.8%
CC(=O)C1C(N2CC2)CC2C3CCC4=CC(=O)CCC4(C)C3CCC21C (stereo not drawn)
→ 7%	x	x	1.3%
COc1ccc(NC2=NC(C)(C)CS2)cc1
→ -7%	3	-39%	-3.5%

# Reprinted from the part before: 3 compounds; new compounds follow.
# Results follow in this order: Rango dissoc inh	GLA inh pH 4.5	miR-21 FLuc	Rango complex inh
Cn1c(O)c(C=Nc2ccc(F)cc2)c(=O)[nH]c1=O
→ 5%	x	6%	-1.8%
CC(=O)C1C(N2CC2)CC2C3CCC4=CC(=O)CCC4(C)C3CCC21C (stereo not drawn)
→ 7%	x	x	1.3%
COc1ccc(NC2=NC(C)(C)CS2)cc1
→ -7%	3	-39%	-3.5%
CNCCc1ccc(O)c(O)c1
→ 3%	2	x	u
CCCCCCN=C(C)c1c(O)n(Cc2ccccc2)c(=O)[nH]c1=O
→ 6%	6	-6%	-2.0%
CCCCOC(=O)C1=C(N)OC2=C(C(=O)CCC2)[C@]12C(=O)N(C)c1ccccc12
→ -28%	-11	-3%	0.0%
Cc1cc(OCc2nn[nH]n2)c2c3c(c(=O)oc2c1)CCCC3
→ 10%	5	2%	8.4%
CC(=O)N1N=C2C3CCN(CC3)C2C1c1cccc2ccccc12 (stereo not drawn)
→ 4%	12	2%	2.6%
COc1cccc(CNC(=O)CCC(=O)N2C[C@H]3C[C@H](C2)c2cccc(=O)n2C3)c1OC
→ -10%	x	0%	0.2%
COC(=O)C1=C(c2cccc(OCc3ccccc3)c2)C[C@@H]2CC[C@H]1N2C(=O)NNCc1ccccc1
→ 0%	x	x	-0.8%
CCOc1ccc(NC(=O)CCNC(=O)N2C[C@H]3C[C@@H](C2)c2cccc(=O)n2C3)cc1
→ 1%	x	0%	-0.7%
CC(=NCCO)c1c(O)n(C)c(=O)n(C)c1=O
→ -2%	3	1%	3.4%
N=c1sc2c(n1Cc1ccccc1)CCCC2
→ -7%	0	2%	-2.8%
O=C1C=CC(=O)C2C1C1(Cl)C(Cl)=C(Cl)C2(Cl)C1(Cl)Cl (stereo not drawn)
→ 3%	x	x	4.0%
Cc1cccc(NC(N)=S)c1
→ -11%	6	-1%	-1.3%
O=C1CN=C(c2ccccc2)c2oc3ccc(Br)cc3c2N1
→ 3%	-4	-12%	1.7%
CN1C(=O)CN=C(c2ccccc2)c2cc([N+](=O)[O-])ccc21
→ x	2	-1%	x
Cc1cccc(-n2c(/C=C/c3ccc([N+](=O)[O-])o3)nc3ccccc3c2=O)c1
→ -16%	1	-10%	2.5%
CC(C)NC(=O)Cn1cc(C(=O)c2ccccc2F)c2ccccc21
→ 6%	0	-3%	-2.4%
CNCCC(Oc1ccc(C(F)(F)F)cc1)c1ccccc1 (stereo not drawn)
→ -1%	-12&-2&-11&-2	1%	1.4%
COc1ccccc1N1CCN(Cc2cccc(OC)c2O)CC1
→ 3%	-6	1%	7.9%
COc1cc2c(cc1OC)-c1c3c(cc4c1[C@@H](C2)N(C)CC4)OCO3
→ -17%	5	6%	u
O=C1NC(=O)C(=Cc2coc3ccc(O)cc3c2=O)C(=O)N1
→ -20%	-2	-1%	-5.8%
CCCCn1c(=O)c(C(=O)NCc2ccccc2Cl)c(O)c2ccccc21
→ -5%	x	0%	2.3%
COc1ccccc1-n1c(-c2cccs2)nc2ccccc2c1=O
→ 10%	-1	11%	2.5%
O=P(C(c1ccc2c(c1)OCO2)N1CCOCC1)(N1CCOCC1)N1CCOCC1 (stereo not drawn)
→ -1%	6	0%	-1.3%
CC1(C)C2([N+](=O)[O-])CNCC1([N+](=O)[O-])CNC2
→ 1%	7	-6%	1.4%
Cc1cccc(C)c1OP(N)(=O)Oc1c(C)cccc1C
→ 13%	-4	7%	-1.9%
CCCc1c(C)nc(-c2ccc(C)cc2)nc1OC(=O)N(C)C
→ -12%	-5	-3%	0.7%
CCOC(=O)C1CCN(C(C)C(=O)c2c(C)[nH]c3cc(C)ccc23)CC1 (stereo not drawn)
→ 11%	-9	-3%	-1.4%

# Full records as entered above. Values in the order: Rango dissoc inh | GLA inh pH 4.5 | miR-21 FLuc | Rango complex inh
# COP(=O)(OC)C(NC(=O)C(C)(C)C)=C(Cl)Cl across the screens: 1% | 7 | -6% | -1.6%
# O=C1C=CC(=O)C2C1C1(Cl)C(Cl)=C(Cl)C2(Cl)C1(Cl)Cl (stereo not drawn) across the screens: 3% | x | x | 4.0%

# Screens from PubChem BioAssay.

# Only part of the results is shown (hit frequency here may not be typical).
